# Mtb growth = M. tuberculosis H37Rv growth inhibitors, H37Rv strain (AID 1626); M. tuberculosis H37Rv growth inhibition; higher % means a stronger effect; 220,000 tested, 0.95% active; inhibition, % at 10 µM; hits with a dose series show IC50 in µM;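 active = confirmed in a dose series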;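 also: bacteria incubated seven days before Alamar blue readout; 0% = bacteria only wells and 100% = bacteria with antibiotic wells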
# Mtb bLac sens = beta-lactam sensitization of Mtb H37Rv; inhibition, % at 25 µM; 330,000 tested, 0.27% active; M. tuberculosis H37Rv growth with meropenem, percent inhibition; hits of this screen are not shown here;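 active = about 74% or more and at least 40 points above the plate without the antibiotic, then above 30% in a dose series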;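 also: growth measured after seven days incubation then overnight dye step; 0% = bacteria only wells and 100% = bacteria with antibiotic; twin plates without the antibiotic show which effects depend on it; some results filed as inactive read as strong as hits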
# RecA intein inh = inhibitors of M. tuberculosis RecA intein splicing; P9WHJ3; cell-free RecA intein splicing, fluorescence; inhibition, %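 (about 9 µM by stock and volumes)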; 290,000 tested, 0.75% active; in the data active = inhibition above about 30%;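 also: 0% = vehicle wells and 100% = reference inhibitor control wells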
# Target sequence (P9WHJ3 whole entry, looked up): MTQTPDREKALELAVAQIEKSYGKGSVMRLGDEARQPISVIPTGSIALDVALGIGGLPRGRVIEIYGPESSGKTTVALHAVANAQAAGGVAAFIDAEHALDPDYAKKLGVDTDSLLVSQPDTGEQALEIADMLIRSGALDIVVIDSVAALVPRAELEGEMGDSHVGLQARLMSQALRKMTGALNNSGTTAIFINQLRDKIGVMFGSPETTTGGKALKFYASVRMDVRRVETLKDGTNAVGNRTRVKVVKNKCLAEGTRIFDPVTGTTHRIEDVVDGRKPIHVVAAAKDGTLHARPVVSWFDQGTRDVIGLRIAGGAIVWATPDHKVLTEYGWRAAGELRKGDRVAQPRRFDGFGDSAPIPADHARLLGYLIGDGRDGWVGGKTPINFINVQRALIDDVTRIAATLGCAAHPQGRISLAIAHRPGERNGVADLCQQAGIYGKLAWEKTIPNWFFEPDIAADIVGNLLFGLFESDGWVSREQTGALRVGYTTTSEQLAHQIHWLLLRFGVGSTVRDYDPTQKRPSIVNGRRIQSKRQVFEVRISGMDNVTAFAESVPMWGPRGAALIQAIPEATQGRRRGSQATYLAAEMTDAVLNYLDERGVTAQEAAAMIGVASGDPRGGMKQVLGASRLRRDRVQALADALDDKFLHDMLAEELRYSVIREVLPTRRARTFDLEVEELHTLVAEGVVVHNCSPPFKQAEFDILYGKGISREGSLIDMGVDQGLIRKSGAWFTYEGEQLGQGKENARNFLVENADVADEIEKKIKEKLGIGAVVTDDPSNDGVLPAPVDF
# Arbovirus anti = blocks arbovirus infection; arbovirus infection cell-based antiviral screen; inhibition, % at 10 µM; 200,000 tested, 0.37% active;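 active = inhibition from about 30%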;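 also: bluetongue infection of BSR cells; cell survival read as ATP light after 72 h; 0% = infected wells without compound and 100% = uninfected wells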
# YopH inh = inhibitors of Yersinia enterocolitica YopH tyrosine phosphatase; fluorescence Ex485/Em525; inhibition, %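 (about 10 µM by stock and volumes)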; 140,000 tested, 0.16% active; AID 898;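 active = inhibition of 50% or more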;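 also: controls were vehicle for no effect and minimum signal wells for full effect; inactives centre near -20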
# Arbovirus anti repeat = second read-out of Arbovirus anti, no call of its own (marks repeat the call); inhibition, %; measured here: 10K subset replicate screen; many hits read low in the repeat;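 first of two repeat runs on a subset; 0% = infected and 100% = uninfected wells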
# * hit, by the source's call; . = not tested or not shown.
SMILES,Mtb growth,Mtb bLac sens,RecA intein inh,Arbovirus anti,YopH inh,others
O=C(Cn1cc(/C=N/NC(=O)c2cccc(C(F)(F)F)c2)c2ccccc21)Nc1ccc(F)cc1,0.8%,22.1,-3.0,-5.4,2.3,
CC(=O)c1ccc(OCc2cc(C(=O)N(C)Cc3ccccn3)no2)cc1,.,2.9,-0.8,.,.,
CC[N+](CC)(CC#Cc1ccccc1)CC(=O)c1ccc(Cl)cc1,0.8%,-2.7,1.2,-8.8,-26.5,
Cc1cc(C=C2C(=O)N(C)C(=O)N(C)C2=O)c(C)n1-c1ccccc1,3.2%,-1.4,0.6,4.0,.,
Cc1ccc(OCC(=O)O/N=C(\N)c2ccccn2)cc1C,5.0%,-2.7,-0.1,.,.,
CSc1ccccc1OCc1cc(C(=O)N2CCC[C@H]2C(N)=O)no1,.,-0.7,0.4,.,.,
CCN(CC)c1ccc(/C=N/NC(=S)NCc2ccco2)cc1,54.5%,14.2,-5.2,-11.9,-30.7,
O=C(NCc1ccccn1)c1nnc(Cc2ccc(Cl)cc2)o1,.,-11.8,-1.1,5.2,-18.8,Arbovirus anti repeat=5.1
CC(C)[C@H]1COCCS(=O)(=O)N1Cc1cccc(Cl)c1,.,-5.9,-1.6,.,.,
Cc1c(C(=O)c2cccc(F)c2)c2ccccn2c1CCC#N,-0.4%,-5.0,2.6,4.6,.,
Cc1ccc(SCC(=O)N2CCOCC2)cc1,-4.7%,-6.2,2.1,-2.0,-19.5,
Nc1nc(N2CCCCC2)nc2ccccc12,.,-8.7,-0.2,9.5,-27.2,
CCC(CC)C(=O)Nc1nnc(SCC(=O)NC2CCCCC2)s1,.,6.4,-2.3,.,.,
C/C(CC(=O)NC(C)C)=N\NC(=O)COc1cc(C)c(Br)cc1Br,3.5%,7.5,-0.3,-20.0,-54.7,
Cc1cc(NC(=O)CSc2nncc(=O)n2N)no1,-4.2%,4.5,-4.7,-3.0,.,
O=C(Nc1ccccc1Cl)NC1(C(=O)NCCCN2CCOCC2)CCCCC1,2.6%,-7.6,-1.4,7.7,-35.8,
Cc1ccc(-c2nc(CS(=O)(=O)CC(=O)NCCN3CCCC3)c(C)o2)cc1,.,-0.4,2.3,.,.,
CC(=O)c1ccc(NC(=S)Nc2ccc3[nH]c(=O)[nH]c3c2)cc1,-0.2%,-0.4,-1.0,4.9,.,
CN(Cc1ccccc1)C(=O)c1nc2ccccn2c1CN1CCC(N2CCOCC2)CC1,-6.8%,-8.5,-4.4,.,.,
Cc1ccc(C)c(C(=O)COC(=O)c2cccc(N3C(=O)c4c(C)nc5ccccc5c4C3=O)c2)c1,0.5%,-6.4,1.4,-1.1,-18.0,
CN(c1ccccc1)S(=O)(=O)c1cccc(C(=O)NNC(=O)c2ccccc2)c1,0.4%,-5.5,2.9,13.9,.,
O=C(CSC1=NS(=O)(=O)c2cc(F)ccc2N1)Nc1ccccc1F,.,-4.4,-1.9,.,.,
CCOC(=O)C1CCCN(C(=S)NC2CCCC2)C1 (stereo not given),-1.0%,1.9,-1.5,-0.8,.,
Cc1ccc(NC(=O)NC2CCCCCCC2)cc1C,.,100.0,-1.5,.,.,
COCc1nc2ccccc2n1Cc1c(F)cccc1Cl,5.7%,-4.4,3.1,-5.2,.,

# Further results follow:
SMILES,Mtb growth,Mtb bLac sens,RecA intein inh,Arbovirus anti,YopH inh,others
COc1ccc(CN(C)C(=O)CNC(=O)c2ccc(C)cc2)cc1,.,-6.6,-17.6,.,.,
CS(=O)(=O)N1CCN(C2Cc3ccccc3C2)CC1,-13.7%,5.4,1.5,-0.8,2.2,
CC(C)COC(=O)C(C#N)c1nc2ccccc2nc1N1CCN(Cc2ccc3c(c2)OCO3)CC1 (stereo not given),2.8%,94.0,2.7,-8.0,-8.9,
COc1ccc(C(=O)NCC(=O)OCc2ccc(Br)cc2)cc1,-7.7%,-0.8,-2.3,3.3,-27.9,
Cc1cc(OC(=O)c2ccccc2)n(CCC#N)n1,-30.9%,-7.0,84.8*,-11.7,-10.9,
Cc1cccc(OCCNC(=O)CCc2ccccc2)c1,.,1.2,2.8,.,.,
Cc1cccc(OCCNC(=S)NC(=O)c2cccnc2)c1,-3.5%,-4.3,-0.8,0.7,-28.5,
N#Cc1nc(-c2cccs2)oc1NCc1ccccc1,6.9%,55.8,3.4,-3.1,-41.6,
CCO[C@H]1OC(C(=O)NC2CC2)=C[C@@H](C2CCCCC2)[C@@H]1CCCO,-10.5%,-2.6,-2.2,.,.,
COc1ccccc1NC(=O)N1CCCC1,2.8%,3.0,-3.9,-0.7,.,
Cc1cccc2cc(CN(CC3CCCO3)C(=S)NCc3ccco3)c(=O)[nH]c12 (stereo not given),-0.1%,3.3,-2.2,6.1,-9.4,
COC(=O)c1ccc(COc2cccnc2[N+](=O)[O-])cc1,.,-2.1,2.2,.,.,
O=C(CNC(=O)c1ccc2ccccc2c1)OCC(=O)N1CCN(S(=O)(=O)c2ccc3ccccc3c2)CC1,-3.5%,-5.4,0.9,-3.0,3.8,
COC(=O)c1cc(OC)c(OC)cc1NC(=S)N1CCC(C(N)=O)CC1,-6.0%,-4.7,.,-1.5,-16.3,
O=C1C2C3C=CC(C3)C2C(=O)N1c1n[nH]c(-c2ccccc2)n1 (stereo not given),-6.3%,-16.8,-1.9,13.6,-11.9,
Cc1ccc(OC(=O)CCNC(=O)c2ccccc2Cl)c(Br)c1,.,17.7,-1.6,.,.,
COc1ccc(-n2c(=O)c(CCC(=O)N(C)Cc3ccccc3C)nc3ccccc32)cc1,9.3%,0.4,7.3,10.4,.,
Cc1cc(=O)[nH]c(N)n1,-2.7%,-1.4,-1.6,.,.,
CN(C(=O)c1ccncc1)c1nnc(-c2ccncc2)s1,-0.4%,16.3,0.7,-3.7,-24.2,
O=C1CC(N2CCOCC2)C(=O)N1c1cc(Cl)cc(Cl)c1 (stereo not given),-7.4%,-4.3,1.0,11.8,-36.8,
COC(=O)CN1C(=O)Nc2ccc(Br)cc2C1c1ccccc1 (stereo not given),-1.6%,-5.1,0.6,18.1,-13.9,
O=C1C2CCCN2c2ccc(S(=O)(=O)N3CCOCC3)cc2N1Cc1cccc(C(F)(F)F)c1 (stereo not given),-6.8%,9.3,.,-1.9,-22.8,
CCOc1ccc(S(=O)(=O)N2CCC(C(=O)NCc3ccccn3)CC2)cc1Cl,.,6.5,0.2,.,.,
COc1ccc(CNC(=O)c2cc(C3CC3)on2)cc1,8.2%,1.6,0.8,3.6,-41.9,Arbovirus anti repeat=-0.4
Cc1ccc(Nc2ccc(S(=O)(=O)N3CCOCC3)cc2[N+](=O)[O-])c(C)c1,5.8%,5.3,3.5,9.3,-25.9,

# 3 compounds already listed, ordered by molar mass, smallest number first:
SMILES,Mtb growth,Mtb bLac sens,RecA intein inh,Arbovirus anti,YopH inh,others
CN(C(=O)c1ccncc1)c1nnc(-c2ccncc2)s1,-0.4%,16.3,0.7,-3.7,-24.2,
Cc1ccc(Nc2ccc(S(=O)(=O)N3CCOCC3)cc2[N+](=O)[O-])c(C)c1,5.8%,5.3,3.5,9.3,-25.9,
Cc1cccc2cc(CN(CC3CCCO3)C(=S)NCc3ccco3)c(=O)[nH]c12 (stereo not given),-0.1%,3.3,-2.2,6.1,-9.4,

# Carrying on.
SMILES,Mtb growth,Mtb bLac sens,RecA intein inh,Arbovirus anti,YopH inh,others
COc1ccc2c(c1)/C(=C/c1cnc[nH]1)C(=O)N2,.,6.0,2.2,.,.,
Cc1ccc(NC(=O)C2CCCN(c3nccc(C)n3)C2)c(C)c1 (stereo not given),.,3.7,-0.7,.,.,
COc1ccccc1Nc1nnc(SCC(=O)c2cc(C)n(CC3CCCO3)c2C)s1 (stereo not given),5.4%,-14.9,1.8,10.0,-20.2,
CC(=O)OC(C(=O)NC1CCCCC1)c1ccncc1 (stereo not given),-5.5%,-5.6,2.8,7.0,-3.4,
O=C(OCC(=O)N1CCCC1=O)C1COc2ccccc2O1 (stereo not given),2.1%,6.2,4.6,2.7,.,
O=C(c1ccc(Cl)cc1)c1ccc(OCC(=O)N2CCOCC2)cc1,-3.4%,5.8,-0.1,-0.4,-18.6,
N#Cc1cn(-c2ccccc2)nc1-c1ccco1,2.3%,0.6,2.5,-1.1,-27.8,
O=C1ON=C(c2ccccc2)/C1=C/c1ccc(OS(=O)(=O)c2ccccc2)cc1,-3.0%,-5.0,.,0.1,-29.0,
COc1ccc(CNS(=O)(=O)c2ccc(NC(=O)N3CCCCC3)cc2)cc1,.,14.2,1.0,.,.,
COC(=O)c1cccc(C(=O)N2CCCC(Nc3ccc4c(c3)OCCO4)C2)c1 (stereo not given),.,-1.0,-0.9,.,.,
O=C(CN(Cc1ccc(F)cc1)C(=O)CNS(=O)(=O)c1ccccc1)NCC1CCCO1 (stereo not given),.,-4.1,3.2,.,.,
COc1ccc(S(=O)(=O)n2nc(OC(=O)c3ccccc3Br)cc2N)cc1,.,-5.0,6.9,-0.3,-51.5,
CC(C)C1(C)N=C(c2ncccc2C(=O)O)NC1=O (stereo not given),-2.9%,3.7,-6.9,2.1,-10.1,
COc1ccc(S(=O)(=O)NCCSC(C)(C)C)cc1Cl,-6.3%,2.9,-3.9,8.3,8.7,
CCOc1ccccc1C(=O)Nc1cc(=O)n(C)c(=O)n1C,.,1.0,-2.2,0.9,.,Arbovirus anti repeat=3.9
Cc1cc(C)nc(NC(=O)CSc2nc3ccccc3o2)n1,-4.0%,.,0.2,5.2,-25.8,
COc1cc(S(=O)(=O)N2CCN(Cc3ccccc3)CC2)ccc1Br,2.6%,-3.4,.,4.3,-17.5,
CCc1cc(-c2n[nH]c(=S)n2CC(C)C)cs1,0.1%,3.4,-3.9,-10.5,-0.7,
Cc1c(-n2c(SCC(=O)O)nnc2-c2ccccc2Br)c(=O)n(-c2ccccc2)n1C,-0.8%,-0.2,-1.0,.,.,
CCOc1ccc(C(C)(C)C)cc1S(=O)(=O)Nc1ccncc1,.,0.9,1.1,.,.,
N#C/C(=C/c1ccccc1OCc1ccc(F)cc1)c1ccc(C(=O)O)cc1,.,-0.5,-0.9,.,.,
COc1cc(CNCc2ccccn2)ccc1OCC(=O)NC1CCCCC1,4.5%,-2.6,0.2,-8.4,-30.1,
O=C1COc2ccc(C(=O)COC(=O)Cc3ccccc3)cc2N1,.,-8.2,5.9,.,.,
CC#CC[N+](C)(CC#CC)CC(=O)c1ccccc1,-1.7%,2.4,-3.0,11.7,.,
CCCCn1c(SCc2ccc(Cl)cc2)nc2c1c(=O)[nH]c(=O)n2C,6.5%,10.1,7.7,-2.6,-21.1,

# (continued)
SMILES,Mtb growth,Mtb bLac sens,RecA intein inh,Arbovirus anti,YopH inh,others
Cc1nn(CC(=O)NCCCc2ccccc2)c(C)c1[N+](=O)[O-],-5.5%,-12.3,0.2,1.0,.,
Cn1cnc2c(=O)sc3ccccc3c21,.,-6.5,1.1,.,.,
COc1ccc(N2CCN(C(c3cc(OC)ccc3OC)c3nnnn3CC3CCCO3)CC2)cc1 (stereo not given),1.9%,-9.2,3.1,3.6,0.3,
Cc1cc2ccccn2c1C(=O)c1ccc(NN)c([N+](=O)[O-])c1,3.9%,18.0,.,-7.0,.,
Cc1noc(C)c1S(=O)(=O)N(Cc1ccccc1)C(C)C,-8.4%,-5.7,2.5,.,.,
CCc1nc(SCC(=O)c2cccs2)c2oc3ccccc3c2n1,3.5%,-5.8,-0.9,-9.8,-14.5,
COCCNc1nnc(Cc2ccccc2)c(=O)[nH]1,.,-4.3,1.0,.,.,
CCc1ccc(OC2=NS(=O)(=O)c3ccccc32)cc1,1.6%,.,-0.7,-1.7,.,
CCOc1cc(C)c(C(C)C)cc1S(=O)(=O)N1CC(C)OC(C)C1 (stereo not given),3.3%,-0.2,8.0,6.7,21.8,
Cc1ccc(NCC(=O)N/N=C/c2cccc(Br)c2)cc1,0.8%,5.1,-3.6,9.1,.,
CCOC(=O)c1c(NC(C)=O)sc2c(OC)cccc12,5.3%,-0.7,.,0.6,-83.6,
Cc1cc(N(C)C)nc(SC(C)C)n1,-4.2%,-1.7,12.5,-1.6,-10.9,
COc1ccc(C)cc1-n1nnnc1SCc1cc(=O)n2cc(C)ccc2n1,-9.8%,-2.6,-0.4,-1.3,-14.5,
COc1c2ccoc2c(OC[C@@H](O)C(C)(C)OC)c2oc(=O)ccc12,-8.6%,-4.6,-46.1,-2.2,-0.8,

# Compounds listed so far that have a nitro group on carbon, in the order listed:
SMILES,Mtb growth,Mtb bLac sens,RecA intein inh,Arbovirus anti,YopH inh,others
COC(=O)c1ccc(COc2cccnc2[N+](=O)[O-])cc1,.,-2.1,2.2,.,.,
Cc1ccc(Nc2ccc(S(=O)(=O)N3CCOCC3)cc2[N+](=O)[O-])c(C)c1,5.8%,5.3,3.5,9.3,-25.9,
Cc1nn(CC(=O)NCCCc2ccccc2)c(C)c1[N+](=O)[O-],-5.5%,-12.3,0.2,1.0,.,
Cc1cc2ccccn2c1C(=O)c1ccc(NN)c([N+](=O)[O-])c1,3.9%,18.0,.,-7.0,.,

# Compound activity as filed in PubChem.

# These rows are one share of the data; count on the stated rates, not on these rows.
